Screens: PubChem BioAssay, several laboratories
MLL AF4-AF9 inh: inhibitors of human MLL-AF4/AF9 interaction; P42568; AlphaScreen, biotin-AF4 peptide binding to FLAG-AF9; inhibition, % at 10 µM; hit rate 0.47% among 350,000;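 active means every replicate reaching a set inhibition limit, whatever the replicate mean, cut at about 25% in these data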;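 further: 0% = plate neutral control median and 100% = total signal loss; the record names both 10 and 1 µM as test concentration; the first replicate is given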
Target sequence (P42568 whole entry, looked up): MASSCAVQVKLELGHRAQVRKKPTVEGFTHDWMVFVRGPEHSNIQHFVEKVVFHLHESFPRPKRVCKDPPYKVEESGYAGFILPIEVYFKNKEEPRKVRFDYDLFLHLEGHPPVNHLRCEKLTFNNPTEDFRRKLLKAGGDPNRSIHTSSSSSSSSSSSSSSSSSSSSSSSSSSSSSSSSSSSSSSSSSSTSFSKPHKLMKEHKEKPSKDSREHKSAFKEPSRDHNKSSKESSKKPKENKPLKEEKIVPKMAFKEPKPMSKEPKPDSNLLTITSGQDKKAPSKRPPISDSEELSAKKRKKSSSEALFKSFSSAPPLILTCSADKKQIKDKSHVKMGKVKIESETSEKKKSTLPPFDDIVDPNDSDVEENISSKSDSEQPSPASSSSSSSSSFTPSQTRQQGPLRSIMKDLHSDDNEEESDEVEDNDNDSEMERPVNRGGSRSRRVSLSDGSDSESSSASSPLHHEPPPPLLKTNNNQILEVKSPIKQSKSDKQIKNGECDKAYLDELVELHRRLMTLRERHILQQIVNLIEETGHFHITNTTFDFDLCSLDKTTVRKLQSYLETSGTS
Bfl-1 A1 inh: inhibitors of the anti-apoptotic protein A1, read as caspase activation | caspase activation, % (concentration not given with the values) | hit rate 0.066% among 330,000 | MEF A1-2A-BIM cells, Caspase-Glo 3/7 luminescence, 3 h; percent of clofoctol response, vehicle zero;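 active means over half of replicate activation scores above 10%, or exactly half above 10 with the replicate mean above 10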;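 further: wells of about 30 µL received 50 nL stock; many hits fall short of the cut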
rRNA inh HTS: inhibits bacterial ribosomal RNA function over humanized ribosomes; E. coli WT GFP vs humanized-ribosome RFP mutants, fluorescence, 24 h; hits give low values; DMSO median 0, no signal -100; GFP signal change (wild-type ribosome), % (test concentration not listed); hit rate 1.6% among 350,000; AID 720706;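 active means significant combined selectivity score with lowered wild-type GFP, culture density cut under 30%, mutant RFP and density less affected; inactive means any of these conditions unmet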; further: one replicate is shown; some compounds called inactive have numbers as strong as hits
Beta cell apopt: beta cell apoptosis inhibition. INS-1E cytokine-induced death, ATP luminescence, 48 h; percent of positive-control rescue, neutral wells zero. protection from apoptosis, % (test concentration not listed). hit rate 0.8% among 300,000;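 active means all replicates at 75% or more, or half of them and the mean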;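 further: 0% = cytokine-treated negative control wells and 100% = positive control rescue; higher means more ATP so stronger rescue from cytokine killing; wells of about 40 µL received 100 nL stock; the first replicate is given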
UCH37 inh: inhibitors of human deubiquitinating enzyme UCH37 | hit rate 0.33% among 330,000 | inhibition, % (test concentration not listed) | purified proteasome/UCH37, Ub-AMC cleavage fluorescence;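 active means mean of two replicates above 20%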;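 further: 0% = compound-free wells with enzyme and 100% = wells lacking proteasome; stock transfer was 100 nL into about 20 µL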
Target sequence (Q9Y5K5 whole entry, looked up): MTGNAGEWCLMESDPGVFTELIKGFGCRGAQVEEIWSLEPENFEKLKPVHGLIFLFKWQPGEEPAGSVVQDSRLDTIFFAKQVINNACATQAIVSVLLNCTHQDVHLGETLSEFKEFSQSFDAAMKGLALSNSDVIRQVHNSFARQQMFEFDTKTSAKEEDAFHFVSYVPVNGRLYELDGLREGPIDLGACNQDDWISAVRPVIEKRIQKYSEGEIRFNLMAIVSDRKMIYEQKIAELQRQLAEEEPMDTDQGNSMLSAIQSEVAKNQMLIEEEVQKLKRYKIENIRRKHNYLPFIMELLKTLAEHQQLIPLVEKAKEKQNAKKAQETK
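Material: Human UCH37 enzyme supplied as purified proteasome complex | Schedule: 30 min preincubation with enzyme, 25 min cleavage at room temperature | Detection: AMC fluorescence 355/460 nm | Measure: % inhibition of Ub-AMC cleavage fluorescence | Controls: Wells without proteasome as full block, compound-free enzyme plus substrate as uninhibited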
E coli growth: E. coli growth inhibition. OD600 absorbance (test concentration not listed). hit rate 0.21% among 330,000. Escherichia coli growth, OD600, 23 h; hits give low values;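 active means OD600 absorbance below the run mean of sample wells minus 3.6 SD, in any replicate, cut at about 0.56 in these data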;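 further: stock transfer was 300 nL into about 60 µL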
T cruzi inh: blocks replication of Trypanosoma cruzi; T. cruzi beta-gal in NIH3T3, luminescence, 90 h; inhibition, % (no concentration beside the values); hit rate 1.4% among 300,000;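 active means mean inhibition across valid replicates above about 55%, limit read from the data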;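 further: signal also drops with host cell toxicity which is not excluded here; 0% = plate median of DMSO wells and 100% = zero luminescence signal; higher percent means less beta-gal luminescence so fewer parasites; stock transfer was 50 nL into about 50 µL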
FGF22 binding: shifts melting point of recombinant human FGF22. Q9HCT0. recombinant FGF22 thermal shift, SYPRO orange fluorescence; percent of sucrose octasulfate shift, DMSO zero. calls only at 9.99 µM. hit rate 1.5% among 340,000. AID 651658;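 active means melting point raised past a set limit in the mean and every replicate; three in four hits are not shown here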
Target sequence (Q9HCT0 whole entry, looked up): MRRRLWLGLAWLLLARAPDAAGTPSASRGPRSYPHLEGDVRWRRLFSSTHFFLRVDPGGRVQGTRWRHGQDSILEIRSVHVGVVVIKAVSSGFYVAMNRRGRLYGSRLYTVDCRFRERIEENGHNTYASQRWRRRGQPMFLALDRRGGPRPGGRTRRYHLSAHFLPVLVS
rRNA inh HTS OD600: further read-out of rRNA inh HTS, marked with its call; OD600 change, %; measured here: OD600 growth;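 optical density of the mix in the first replicate; 0 = DMSO median and -100 = no signal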
rRNA inh HTS RFP: recorded beside rRNA inh HTS, whose call it bears; RFP signal change, %; measured here: RFP humanized mutant strains;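 first replicate; 0 = DMSO median and -100 = no signal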
An asterisk follows results filed as active; i = inactive; / = not tested or not shown. Some of the compounds tested (hit frequency here may not be typical).

SMILES	MLL AF4-AF9 inh	Bfl-1 A1 inh	rRNA inh HTS	rRNA inh HTS OD600	rRNA inh HTS RFP	Beta cell apopt	UCH37 inh	E coli growth	T cruzi inh	FGF22 binding
COC(=O)c1oc2ccc(OC)cc2c1N	/	-1.6	/	/	/	-5.6	-38.8	0.709	-1.6	/
Cc1cc(C)c2c(N)c(C(=O)Nc3ccccc3F)sc2n1	-0.3	0.2	-11.5	-8.3	-5.7	-5.6	-96.0	0.759	8.4	/
COc1cc(COC(=O)c2cnc(C)cn2)c(OC)cc1Br	3.1	0.8	4.3	-2.6	-1.2	0.0	-0.7	0.654	-17.5	i
O=S(=O)(c1ccc(Br)s1)N1CCN(Cc2ccc3c(c2)OCO3)CC1	/	-0.3	/	/	/	-7.9	4.8	0.708	4.0	/
O=C(NCC(c1ccco1)N1CCN(c2ccccc2F)CC1)c1ccc2c(c1)OCO2 (centres undefined)	2.7	0.3	-28.0	-36.1	-5.2	4.5	0.0	0.689	15.4	i
COC(=O)[C@@]1(Cc2ccc(F)cc2)[C@H]2c3cc(C(=O)N4CCCC4)n(CCCNc4ncc(C(F)(F)F)cc4Cl)c3C[C@H]2CN1C(=O)c1ccccc1	/	-0.4	16.7	7.8	2.6	15.0	6.0	/	40.5	/
Cn1ccsc1=NC(=O)c1ccc(Cl)cc1	0.2	-3.6	-27.1*	-19.8*	0.0*	-4.4	-0.9	0.665	-3.3	i
COC(=O)CCCCCCCCC(O)CN1CCCCC1 (centres undefined)	/	1.4	/	/	/	-7.4	1.4	0.72	-7.3	/
O=C(COc1ccc(Br)cc1Br)NC1CCCC1	-3.3	0.2	-4.3	-9.2	-3.9	-1.5	3.3	0.663	12.4	i
COc1ccc(NC(=O)COC(=O)c2ccc(-n3cnnn3)cc2)c([N+](=O)[O-])c1	1.5	0.0	3.2	9.0	-1.1	-7.1	4.7	0.654	/	i
COc1ccc(S(=O)(=O)N2CCN(C)CC2)cc1C(=O)Nc1ccccc1	1.4	0.3	15.4	10.1	0.8	0.2	2.0	0.664	-2.5	i
NNC(=O)c1ccc(Cn2cc(Br)c(N)n2)cc1	0.2	-1.2	4.4	3.6	-0.1	-1.2	4.0	0.649	-7.1	i
O=C(CC12CC3CC(CC(Br)(C3)C1)C2)Nc1cccc(S(=O)(=O)NC2=NCCC2)c1	0.0	-4.2	9.9	6.3	-0.4	-7.7	4.2	0.733	4.7	i
COC(=O)CCNc1ccc2c(c1)OCCO2	/	0.8	9.2	9.5	1.3	-0.9	1.2	0.741	15.0	/
Cc1nc2nc(-c3cccs3)[nH]c2cc1Br	-1.4	-7.3	/	/	/	8.2	-5.0	0.627	-6.9	i
OC(CCN1CCC2CCC(C2)C1)c1ccc(Br)cc1 (centres undefined)	-0.5	/	12.1	5.9	5.0	/	2.4	0.642	/	i
CCC(Oc1ccccc1)C(=O)Nc1ccc(S(=O)(=O)Nc2cc(C)on2)cc1 (centres undefined)	1.0	-0.5	3.9	15.4	-1.0	-7.2	3.3	0.674	-2.2	i
CC(C)N(CC#CCC(O)(c1ccccc1)C1CCCC1)CCO (centres undefined)	1.1	-0.3	1.7	3.5	1.3	-3.9	7.0	0.718	-2.3	i
CCOC(=O)C1CCN(S(=O)(=O)CCNC(=O)c2ccccc2)CC1	-9.5	-1.1	1.0	3.3	-3.3	2.4	5.0	0.692	-0.7	i
CCCCn1c(N)c(N(CCC(C)C)C(=O)COC(=O)c2ccc(CC)cc2)c(=O)[nH]c1=O	-0.9	/	14.6	16.2	0.8	/	0.6	0.655	/	i
C=CCNC(=O)c1ccccc1NS(=O)(=O)c1ccc(OC)c(C(=O)N2CCOCC2)c1	-4.1	0.2	0.2	-3.4	-3.3	-4.8	-0.4	0.695	-2.0	i
Cc1nc(NC(=O)CSc2cc(C)c3ccccc3n2)c(Cl)cc1Cl	/	-0.1	/	/	/	-3.7	-1.9	0.711	5.6	/
O=C(O)CSCc1nc2cccnc2n1C1CCCCC1	3.0	-0.5	1.8	1.8	0.8	-0.2	6.6	0.664	-6.9	i
CCn1cc(C(=O)NCCC(C)C)c(=O)c2cc(F)c(N3CCN(C(=O)c4ccco4)CC3)cc21	-4.4	-0.6	-57.0	-77.5	-19.5	10.6	-120.7	0.148*	34.6	i
CC/C(C)=C1\SC(N2CCOCC2)=NC1=O	/	-0.5	/	/	/	8.7	0.8	0.748	-14.3	/

Next part
SMILES	MLL AF4-AF9 inh	Bfl-1 A1 inh	rRNA inh HTS	rRNA inh HTS OD600	rRNA inh HTS RFP	Beta cell apopt	UCH37 inh	E coli growth	T cruzi inh	FGF22 binding
Cc1ccc(NS(=O)(=O)c2ccc(Cl)s2)cc1S(=O)(=O)N(C)C	-7.0	0.7	-49.9	-64.7	-5.3	-2.4	-1.0	0.688	-4.2	i
COc1ccccc1Nc1nc(N)nc(CN(C)C2CCCCC2)n1	/	1.8	/	/	/	-2.7	4.8	0.713	0.8	/
O=C(COc1ccc([N+](=O)[O-])cc1Cl)NCCN1C(=O)CSC1=O	-0.3	0.2	2.2	-0.5	-4.1	-0.2	2.1	0.649	/	i
COCCN1C(=O)C(=O)/C(=C(/O)c2ccc(S(=O)(=O)N3CCOCC3)cc2)C1c1cccc(O)c1 (centres undefined)	3.3	0.5	5.3	-2.0	-0.1	-4.7	10.2	0.693	5.0	i
CCN1CCN(C(=O)CN2C(=O)c3cccc4cccc2c34)CC1	/	-0.2	/	/	/	-9.9	-18.6	0.726	4.7	/
C/C(=N\NC(=O)Cc1c(C)[nH][nH]c1=O)c1ccc(Cl)c(Cl)c1	-3.4	0.3	-2.0	9.2	11.2	-0.3	/	/	-6.9	i
COc1ccc(N2CCN(C(=O)CNC(=O)Cn3cnc4sc(C)c(C)c4c3=O)CC2)cc1	1.8	0.7	3.8	11.5	-0.7	-5.1	-1.2	0.69	17.0	i
CCOC(=O)c1ccc(NC(=O)CN(c2ccc(C)cc2)S(=O)(=O)c2c(C)n[nH]c2C)cc1	/	0.7	/	/	/	6.6	1.3	0.698	24.1	/
Cc1ccccc1NC(=O)c1ccc(COc2ccc3c(C)cc(=O)oc3c2)cc1	/	1.2	/	/	/	-4.5	-25.3	0.729	-8.1	/
CCCCN(C(=O)NC(=O)Nc1ccccc1OC)S(C)(=O)=O	/	0.0	/	/	/	-1.1	0.8	0.679	12.5	/
O=C(NC(=S)Nc1nc(-c2ccc(Br)cc2)cs1)c1cccnc1	/	1.3	/	/	/	-6.4	3.0	0.753	/	/
CCNC(=O)N(CC)C[C@H]1N[C@@](CC)(C(=O)OC)[C@H]2C(=O)N(Cc3ccccc3)C(=O)[C@@H]12	-0.7	/	7.2	4.1	-0.7	/	-0.3	0.68	/	i
COc1ccc(CSc2nnc(SCc3ccc([N+](=O)[O-])cc3)s2)cc1	/	0.1	/	/	/	-4.4	-0.2	0.71	11.7	/
Cc1ccc(S(=O)(=O)N2CCN(S(=O)(=O)N3CCCCC3)CC2)cc1	/	-0.2	/	/	/	-1.2	1.4	0.746	-2.3	/
CC(=O)N1CCc2cc(S(=O)(=O)CCC(=O)N3CCC(C)CC3)ccc21	-2.0	0.3	10.5	5.2	1.7	-0.7	3.7	0.698	-0.2	i
COc1ccc(NC(=O)c2cc(-c3ccccc3)nc3c2cnn3C(C)C)cc1	-2.6	-0.3	2.4	8.2	-2.4	23.6	0.8	0.691	/	i
CCOc1ccc(S(=O)(=O)NCc2ccccn2)cc1	0.6	1.1	3.2	5.3	1.9	-5.6	0.2	0.706	-2.0	i
CC(=O)c1ccc(NC(=S)Nc2cccc(S(=O)(=O)Nc3c(C)n(C)n(-c4ccccc4)c3=O)c2)cc1	-2.6	-0.6	1.5	4.6	0.9	-26.2	4.8	0.668	-5.6	i
Cc1ccc(-n2c(=S)sc3c(=O)n(-c4ccccc4C)c(SCC(=O)O)nc32)cc1C	-2.5	0.6	-18.1	-13.3	-4.3	/	11.4	0.669	0.0	i
COc1ccc(CN2C(=O)CSC2c2ccncc2)cc1 (centres undefined)	-1.4	-1.1	-4.0	-20.3	-2.9	-2.3	-0.9	0.636	0.5	i
CC(=O)Nc1ccc(S(=O)(=O)Nc2nc3ccccc3nc2Nc2ccc(O)cc2)cc1	/	0.5	-23.4	-19.1	-2.5	4.2	6.0	0.66	-9.9	i
Cc1ccc(NC(=O)CC2CCCC2)c(Br)c1	0.4	-1.1	5.8	5.0	1.0	-21.3	-0.6	0.649	0.5	i
O=C(COc1ccccc1Br)NCCC1=CCCCC1	0.7	0.4	-56.2	-81.9	-18.2	0.7	-2.1	0.64	/	i
COc1ccc(NC(=S)Nc2cccc3cnccc23)cc1	/	1.1	/	/	/	-8.1	1.5	0.679	1.4	/
CCNC(=O)COc1ccc(Br)cc1Cl	/	0.5	/	/	/	1.0	1.7	0.663	-0.3	/

Next records follow:
SMILES	MLL AF4-AF9 inh	Bfl-1 A1 inh	rRNA inh HTS	rRNA inh HTS OD600	rRNA inh HTS RFP	Beta cell apopt	UCH37 inh	E coli growth	T cruzi inh	FGF22 binding
O=C(CCC(=O)N(CC(=O)NC1CCCCC1)Cc1ccco1)Nc1nccs1	/	0.3	/	/	/	-2.4	1.8	0.788	-6.0	/
Cc1ccc(CS(=O)(=O)c2ccc(C(=O)N3CCCCC3)cc2[N+](=O)[O-])cc1	0.5	0.0	2.4	5.3	-1.1	-6.6	3.8	0.708	-5.3	i
COc1ccc(CN2C(=O)C(CC(C)C)Nc3ncnc(N4CCCCC4)c32)cc1 (centres undefined)	-4.4	0.1	4.2	-14.5	0.5	-17.7	4.6	0.644	2.5	i
CCOC(=O)c1cnc2c(-c3ccccc3)c(-c3ccccc3)nn2c1C	-1.0	0.1	1.3	5.0	-0.9	-1.2	3.0	0.696	34.9	i
Fc1ccccc1NC(=S)N1CCN(Cc2ccccc2)CC1	-2.6	1.4	3.5	-1.5	-6.4	-1.8	6.1	0.693	-3.6	i
COc1ccc(NC(=O)CSc2nc3nc(C)cc(C)c3c(=O)[nH]2)cc1	-0.2	1.1	8.1	12.5	2.3	/	/	/	-18.2	i
Cc1noc(NS(=O)(=O)c2ccc(NC(=O)CSc3nc4c(cc3C#N)CCC4)cc2)c1C	-3.1	0.4	-9.2	-3.5	-2.0	-1.6	8.9	0.759	-3.4	i
O=C(CO/N=C/c1ccc(OC(F)F)cc1)NC1CCCCC1	-2.2	0.0	-1.0	0.9	-4.0	-2.5	/	/	-5.5	i
O=C(c1ccc(S(=O)(=O)Cc2cc(F)ccc2F)c([N+](=O)[O-])c1)N1CCCCC1	3.5	-0.6	4.6	2.4	-2.8	3.7	1.9	0.699	-13.1	i
CCOc1ccc(C(=O)NCC(=O)N2CCN(Cc3ccccc3)CC2)cc1	0.7	0.5	1.2	1.8	-2.4	3.1	3.5	0.667	/	i
O=C(c1ccc2c(=O)n(Cc3ccc4c(c3)OCO4)c(=S)[nH]c2c1)N1CCCCC1	-0.3	0.2	16.6	18.4	-5.9	5.6	4.0	0.71	-19.0	i
CCc1nc(SCC(=O)N2CC(=O)Nc3ccccc32)c2c(C)c(C)sc2n1	0.3	0.2	24.6	0.9	11.3	19.8	1.3	0.688	14.6	i
